PINK1 expr mod: A Quantitative High throughput Screen to Identify Chemical Modulators of PINK1 Expression. Potency, µM (series often up to 76.6 µM), inactives show at the top dose activation (PINK1 increase), hits mostly activators. AID 624263, 2012. PINK1 immunofluorescence, high-content cytometry, 24 h. 0.2% of 410,000 active; active = well fitted activation curve with a large enough effect; inconclusive = small, poorly fitted or top-dose-only effect; inactive = flat fitted curve, though single readings scatter; cell line not stated here;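 further: potency means the concentration at half of the fitted maximal effect; % of control where 0% means no effect; nearly all actives have a fitted effect of over 65% in size; a mitochondrial uncoupler was the plate control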
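Cells are seeded, rested 12 hours, then given compound at five concentrations or DMSO for 24 hours. After fixation, blocking and antibody staining, PINK1 amount and mitochondrial localization are scored; CCCP serves as control.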
Sfp inh: qHTS Assay for Inhibitors of Bacillus subtilis Sfp phosphopantetheinyl transferase (PPTase); 4'-phosphopantetheinyl transferase ffp (Bacillus subtilis), Q9F4F7; Biochemical Sfp PPTase activity, qHTS; Potency, µM, for the others: max response, negative = inhibition, usual class: inhibitors; 3.5% of 310,000 active; active means well fitted inhibition curve with a large enough effect; inconclusive means small, poorly fitted or top-dose-only effect, or another doubt; inactive means no such curve, though single readings can be large or run the other way;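 further: the enzyme is Sfp with the accession as filed and its product quenches rhodamine fluorescence; potency means the concentration at half of the fitted maximal effect; 0% = enzyme reaction without inhibitor and -100% = no enzyme wells; top concentration of the series not given in the record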
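Step 1, compound plus 15 nM Sfp-PPTase, 15 min, room temperature. Step 2, add rhodamine-CoA (5 uM) and BHQ-2-YbbR (12.5 uM). Step 3, read 525/598 nm fluorescence at 0 and 30 min.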
Six1-Eya2 inh: qHTS Assay for Inhibitors of the Six1/Eya2 Interaction; Homeobox protein SIX1 (Homo sapiens) + Protein phosphatase EYA2 (Homo sapiens), …; AlphaScreen GST-Six1/His-Eya2 binding, biochemical; stronger effect = lower value; control for the full effect not named in the record; activity change, % (concentration not given with the values); 0.56% of 360,000 active; AID 651725, 2012; in the data active = activity change below about -65%; inconclusive = about -30% to -65%; inactive = above about -30%; further: on the % scale 0 is the no-effect control and ±100 the full control effect
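Compounds are tested against tagged Six1 and Eya2 proteins bridged by glutathione donor and nickel acceptor beads; after a one-hour incubation at 37 °C without light, AlphaScreen emission is recorded.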
CtBP-E1A blk: qHTS Assay for Inhibitors of the CtBP/E1A Interaction; AlphaScreen GST-E1A/His-CtBP binding, 1536-well; stronger effect = lower value; control for the full effect not named in the record; CtBP / adenovirus E1A interaction (AlphaScreen); activity change, % (concentration not given with the values); 0.49% of 340,000 active; in the data active means activity change below about -65%; inconclusive means about -30% to -65%; inactive means above about -30%; further: on the % scale 0 is the no-effect control and ±100 the full control effect
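Protein mix (5X: 125 nM each GST-E1A, His-CtBP) was incubated with pinned compound 2 h at 37 deg C in dark, in 50 mM Tris pH 8.0 buffer with 300 mM NaCl. Glutathione donor and nickel acceptor beads followed; AlphaScreen signal read after 1 h.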
D2 PAM: Beta-Arrestin HTS for Positive Allosteric Modulators of the Human D2 Dopamine Receptor: Potentiators; D(2) dopamine receptor (Homo sapiens), P14416; DiscoveRx D2 beta-arrestin cells, luminescence, 90 min; 100% = 57 uM dopamine signal; potentiation, % (test concentration not listed); 0.23% of 360,000 active; active = potentiation of 50% or more; inconclusive = 30% to 50%; inactive = 30% or less;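 further: compound concentration not given in the record; tested on top of an EC20 dose of dopamine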
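PathHunter D2 cells, attached overnight at 37 deg C, received compound in DMSO plus dopamine at EC20 (50 nM final) for 90 min at 37 deg C. Beta-arrestin recruitment was read as luminescence after 1 h with detection reagent at ambient temperature.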
TRPV1 PAM: HTS Assay for Compounds that Act as Potentiators of the Vanilloid Receptor 1. Transient receptor potential cation channel subfamily V member 1 (Homo sapiens), Q8NER1. TRPV1-expressing cells, Fluo-8 calcium influx, capsaicin EC20 potentiation; host cell line not named in the record; control for the full effect not named in the record. potentiation, % at 8.33 µM. 0.02% of 320,000 active. AID 540277, 2011; active means potentiation above 80%; inconclusive means 30% to 80%; inactive means below 30%; further: 0% is about no effect
Target sequence (Q8NER1 whole entry, looked up): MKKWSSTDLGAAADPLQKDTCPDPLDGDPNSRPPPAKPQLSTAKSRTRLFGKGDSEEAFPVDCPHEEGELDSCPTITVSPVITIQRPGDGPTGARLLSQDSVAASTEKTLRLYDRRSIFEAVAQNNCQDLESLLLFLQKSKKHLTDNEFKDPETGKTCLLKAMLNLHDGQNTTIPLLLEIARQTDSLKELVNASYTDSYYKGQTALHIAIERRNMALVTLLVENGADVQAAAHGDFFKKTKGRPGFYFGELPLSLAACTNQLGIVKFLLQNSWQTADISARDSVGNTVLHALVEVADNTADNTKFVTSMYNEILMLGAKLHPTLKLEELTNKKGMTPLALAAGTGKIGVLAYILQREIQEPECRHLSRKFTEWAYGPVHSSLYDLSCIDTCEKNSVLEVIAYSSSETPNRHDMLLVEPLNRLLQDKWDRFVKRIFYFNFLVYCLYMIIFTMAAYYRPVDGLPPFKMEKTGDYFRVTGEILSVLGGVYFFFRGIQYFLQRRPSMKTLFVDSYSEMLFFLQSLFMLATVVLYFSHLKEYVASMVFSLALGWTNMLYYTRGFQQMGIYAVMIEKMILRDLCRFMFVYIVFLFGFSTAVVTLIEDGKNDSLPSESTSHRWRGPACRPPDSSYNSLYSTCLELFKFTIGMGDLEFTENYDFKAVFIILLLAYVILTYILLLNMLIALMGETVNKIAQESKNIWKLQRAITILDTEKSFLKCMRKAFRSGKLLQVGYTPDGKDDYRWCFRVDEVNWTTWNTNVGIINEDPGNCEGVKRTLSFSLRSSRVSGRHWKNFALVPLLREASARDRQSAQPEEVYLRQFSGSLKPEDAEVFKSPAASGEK
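TRPV1-expressing cells were cultured overnight at 35.5C and loaded with Fluo-8 calcium dye for 40 to 90 min at room temperature. After a 10 s baseline, compound was added and calcium influx was read kinetically for 3 min (ex 480/em 520 nm).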
D2 agonist: Beta-Arrestin HTS for Positive Allosteric Modulators of the Human D2 Dopamine Receptor: Agonists | DiscoveRx PathHunter D2 beta-arrestin, luminescence, 90 min; 100% = 57 uM dopamine signal | activation, % (no concentration beside the values) | 0.084% of 360,000 active; in the data active = activation above about 40%; inconclusive = about 15% to 40%; inactive = below about 15%; further: compound concentration not given in the record; the text of the record calls up to 30% inactive
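Agonist mode: compounds alone added to overnight-plated D2 PathHunter cells for 90 min at 37 C, with 57 uM final dopamine (EC100) defining full response. Beta-arrestin recruitment detected by chemiluminescent reagent, read after 1 h at ambient temperature.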
The depositor's hits bear a star; ? = inconclusive; / = no result given; & = joins results of further samples; [ ] = another dose, or the depositor's remark.

SMILES	PINK1 expr mod	Sfp inh	Six1-Eya2 inh	CtBP-E1A blk	D2 PAM	TRPV1 PAM	D2 agonist
O=S(=O)(NC1CCCCC1N1CCN(c2ccc(F)cc2)CC1)c1ccccc1 (centres undefined)	-0.2%	-10.5%	1.3	/	-10.2	0.7	-1.8
CCOC(=O)c1cc(CC)sc1/N=C/C1=C(O)CC(C)(C)CC1=O	?	-3.3%	2.4	19.2	-10.9	-8.0	0.6
COCCN(C(=O)c1cc(-c2ccc(F)cc2)nc2ccccc12)c1c(N)n(CC(C)C)c(=O)[nH]c1=O	1.1%	/	1.7	-16.0	0.2	/	-1.1
CCn1c(Cc2ccc(OC)cc2)nnc1SCC(=O)Nc1ccc(N2CCOCC2)cc1	3.1%	10.1%	-16.2	0.0	-9.0	16.0	1.0
CCc1nnc(NC(=O)C(c2ccccc2)c2ccccc2)s1	-0.5%	13.3%	-4.6	-0.4	-3.6	7.0	-3.3
Cc1cc(C)cc(N(CC(=O)NC(C)(C)C)C(=O)CCC(=O)Nc2nccs2)c1	0.4%	-3.4%	-5.0	0.0	-2.3	-3.6	-1.1
Cc1[nH]nc2c1C(c1ccco1)C(C#N)=C(N)O2 (centres undefined)	0.6%	3.5%	-1.3	-22.6	3.7	24.1	-1.6
O=C(Cc1ccccc1)NCC1COc2ccccc2O1 (centres undefined)	4.1%[38.3 µM]	/	0.0	97.0	-17.0	/	-0.9
O=C(C1CCN(S(=O)(=O)c2cccnc2)CC1)N1CCCCC1	-1.2%[38.3 µM]	3.7%	1.3	5.1	-7.0	-5.4	1.2
O=C1NC(=O)C([N+](=O)[O-])=C(O)C1=O	-0.7%	/	1.4	2.2	-7.6	/	-2.8
CCN(CC(=O)NC(C)(C)C)C(=O)c1ccccc1SCC(=O)NC1CCCCCCC1	-0.3%	2.3%	6.5	-18.4	-3.3	-10.9	-2.2
CCc1ccccc1NC1=NCC(=O)N1Cc1ccc2c(c1)OCO2	-0.3%	3.6%	22.5	0.0	-1.6	3.0	-4.8
CCOC(=O)C1CCN(CCCSc2ccccc2)CC1	-1.3%	/	-0.6	1.0	-9.5	/	-1.3
NC1=NC2(CCCCC2)N(c2ccc(F)cc2F)C(N)=N1	1.8%	8.4%	8.0	1.0	-7.1	-6.2	-6.0
COc1ccccc1NC(=S)N(Cc1ccco1)Cc1cc2ccc(C)c(C)c2[nH]c1=O	?	50.1µM*	-3.4	-5.9	-5.7	-1.5	-0.6
Cc1noc(C)c1COc1ccccc1C(=O)NCCc1ccc(Cl)cc1	1.6%	/	1.5	9.0	-8.5	-11.4	3.3
CC1(C(=O)NC2CCCCCCC2)CCC(=O)N1Cc1ccco1 (centres undefined)	-0.2%[38.3 µM]	14.7%	-0.6	-19.7	-0.4	5.5	-1.0
COC(=O)CCc1ccc(OCC(O)CNC(C)C)cc1 (centres undefined)	1.5%	/	4.5	5.3	-15.0	/	-7.2
O=C(CSc1nc2sc3c(c2c(=O)[nH]1)CCCC3)NCCO	-0.6%	26.9%	-13.5	1.5	-7.9	7.7	-5.9
O=S(=O)(NCc1ccc(F)cc1)c1ccc(-n2cccn2)cc1	2.2%	11.1%	1.3	-4.2	-9.7	18.4	-3.0

Ordered by length of the SMILES (lowest first): part of the list above.
SMILES	PINK1 expr mod	Sfp inh	Six1-Eya2 inh	CtBP-E1A blk	D2 PAM	TRPV1 PAM	D2 agonist
CCOC(=O)C1CCN(CCCSc2ccccc2)CC1	-1.3%	/	-0.6	1.0	-9.5	/	-1.3
COC(=O)CCc1ccc(OCC(O)CNC(C)C)cc1 (centres undefined)	1.5%	/	4.5	5.3	-15.0	/	-7.2
O=C1NC(=O)C([N+](=O)[O-])=C(O)C1=O	-0.7%	/	1.4	2.2	-7.6	/	-2.8
NC1=NC2(CCCCC2)N(c2ccc(F)cc2F)C(N)=N1	1.8%	8.4%	8.0	1.0	-7.1	-6.2	-6.0
CC1(C(=O)NC2CCCCCCC2)CCC(=O)N1Cc1ccco1 (centres undefined)	-0.2%[38.3 µM]	14.7%	-0.6	-19.7	-0.4	5.5	-1.0
CCc1ccccc1NC1=NCC(=O)N1Cc1ccc2c(c1)OCO2	-0.3%	3.6%	22.5	0.0	-1.6	3.0	-4.8
O=S(=O)(NCc1ccc(F)cc1)c1ccc(-n2cccn2)cc1	2.2%	11.1%	1.3	-4.2	-9.7	18.4	-3.0
Cc1noc(C)c1COc1ccccc1C(=O)NCCc1ccc(Cl)cc1	1.6%	/	1.5	9.0	-8.5	-11.4	3.3
CCN(CC(=O)NC(C)(C)C)C(=O)c1ccccc1SCC(=O)NC1CCCCCCC1	-0.3%	2.3%	6.5	-18.4	-3.3	-10.9	-2.2
COc1ccccc1NC(=S)N(Cc1ccco1)Cc1cc2ccc(C)c(C)c2[nH]c1=O	?	50.1µM*	-3.4	-5.9	-5.7	-1.5	-0.6

Remaining list, next part:
SMILES	PINK1 expr mod	Sfp inh	Six1-Eya2 inh	CtBP-E1A blk	D2 PAM	TRPV1 PAM	D2 agonist
COc1ccc(OCC(=O)N/N=C(\C)c2cc3ccccc3o2)cc1	5.8%	8.7%	2.2	/	-8.3	2.9	-7.6
O=C(COc1ccccc1)OCC(=O)c1ccc(S(=O)(=O)N2CCCCC2)cc1	2.1%	/	12.0	/	-34.7	10.2	-9.2
O=C(CSc1ccc(F)cc1)Nc1cccc(S(=O)(=O)N2CCOCC2)c1	0.3%	/	2.9	2.6	-1.6	/	2.8
CCCC(=O)Nc1ccc(C(=O)Nc2cccc(OC)c2)cc1	-0.9%	-0.9%	-3.0	/	3.0	-21.9	-0.8
Cc1ccc(NC(=O)N2CCN(C/C=C/c3ccccc3)CC2)cc1	1.2%	4.9%	-4.5	-4.3	-3.1	-16.2	-2.4
Cc1nsc(N)c1C(=O)O	0.8%	-1.5%	3.3	1.9	-7.2	-30.3	-3.3
COC(CN1C(=O)C(O)=C(C(C)=O)C1c1ccccn1)OC (centres undefined)	2.1%	79.4µM*	8.3	-1.0	-3.9	6.3	-1.5
CCOC(=O)COc1ccc(C(=O)c2ccccc2)c(O)c1	1.0%	-11.8%	5.0	-1.6	-30.7	1.8	-3.1
Cc1ccc(CN2CCNC(=O)C2CC(=O)N(C)CCc2ccccc2)cc1 (centres undefined)	-0.6%	18.5%	2.2	0.2	-20.2	4.5	-1.3
O=C(NCCNc1nccc(C(F)(F)F)n1)c1cccs1	-0.5%	23.2%	-2.2	/	-0.6	-12.7	-6.3
CCOC(=O)C(NC(C)=O)(NC(C)C)C(F)(F)F (centres undefined)	3.2%	5.0%	4.5	/	-19.1	1.3	-5.3
Cc1nc2n(c(=O)c1CCN1CCC(c3noc4cc(F)ccc34)CC1)CCCC2	1.7%&0.2%	19.9%&24.2%&23.3%	2.1	0.3	/	-3.2	/
O=C(NNC(=O)c1ccncc1)NC1CCCCC1	0.2%	-6.7%	5.1	-8.6	-8.3	6.2	0.9
COCCNC(=O)c1cccc2c(-c3cccc(C(N)=O)c3)coc12	4.2%	/	?	?	5.1	/	7.1
FC(F)(F)c1nnc2sc(-c3cccs3)nn12	-2.5%	6.1%	1.3	-4.6	-5.8	4.8	-0.5
CCn1nc(NC(=O)c2ccncc2)c2cc3cc(C)ccc3nc21	3.4%	0.3%	-1.6	-0.7	-13.9	-31.0	-2.8
O=C(CCCCn1c(=O)c2ccccc2n(CC(=O)Nc2ccccc2)c1=O)NCc1ccco1	15.9%	-9.5%	16.1	0.0	-8.1	1.6	3.4
O=C(COc1ccc(F)cc1F)NNC(=O)Nc1cccc([N+](=O)[O-])c1	7.9%	7.8%	-5.0	1.3	-10.2	13.0	-2.6
Cc1ccc(-c2nc(CN(C)C3CCOC3)c(C)o2)s1 (centres undefined)	-1.7%	6.5%	0.1	3.9	-5.7	-19.0	-1.9
CSc1ncccc1C(=O)OCC(=O)NC1CCCC1	-2.6%	/	9.6	-1.7	-9.6	7.8	-3.8
CCc1ccc(/C=C2\SC(=S)N(CCCC(=O)N(CCO)c3ccccc3)C2=O)cc1	-1.6%	/	-28.0	-8.0	-18.2	/	-1.3
Cc1nc2cc(NS(=O)(=O)c3ccccc3F)ccc2s1	-0.2%	9.0%	3.1	-4.5	-7.1	2.9	-2.5
O=C(c1ccncc1)c1ccc(N2CCN(C3CC(=O)N(Cc4ccccc4)C3=O)CC2)cc1 (centres undefined)	0.7%	-3.1%	-0.3	7.8	-4.7	4.2	3.4
Cc1ccc(NC(=O)CN(C)C(=O)c2cccc(-n3cccc3)c2)cc1	3.1%	/	?	-2.5	-28.2	12.8	-0.8
O=C(CN1C(=O)NC2(CCCCCCC2)C1=O)NC(=O)NCc1ccco1	0.1%	-7.2%	-6.9	-2.9	15.3	?	0.0
CN(Cc1cccc(Cl)c1)C(=O)C1CCC(=O)N(C2CC2)C1 (centres undefined)	-1.6%	27.3%	-2.6	/	-7.8	-6.1	0.6
Cc1cc(S(=O)(=O)N2CCOCC2)ccc1OCC(=O)N1CCCCC1	3.2%	-2.9%	25.9	0.0	-4.6	7.7	-7.4
O=C(NC(=S)Nc1ccc(N2CCOCC2)cc1)c1cccs1	1.7%	?	-0.8	/	-4.9	-9.6	-2.7
CCCN(Cc1nc2cc(Cl)ccc2c(=O)[nH]1)C(=O)c1ccc(S(=O)(=O)N2CCCC2)cc1	4.8%	/	-7.5	/	-1.0	13.6	-3.1
Cn1c(=O)c2ccccc2n(Cc2cccc(F)c2)c1=O	2.6%	8.0%	0.5	-25.7	-4.5	0.4	-2.8
